Sa ugtP lethal: growth inhibition of ugtP-null S. aureus, primary screen, RN4220 ugtP deletion, OD600. 330,000 tested, 0.54% active. AID 1259309, 2017. growth inhibition, % (test concentration not listed). 16 h; some inactives read as strong as hits;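 active = z-score under -3 and OD600 up to 0.15 on both plates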;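 also: plate controls were untreated wells for no effect and antibiotic for full effect; wells of about 80 µL received 100 nL stock; the first replicate is given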
Sa RN4220 lethal: growth inhibition of S. aureus RN4220, primary screen, OD600; AID 1259311, 2017; 16 h; 330,000 tested, 0.33% active; inhibition, % (no concentration beside the values);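 active = z-score of -3 or lower and OD600 up to 0.18 on both plates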;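 also: plate controls were untreated cells for no effect and reference antibiotic for full effect; stock transfer was 100 nL into about 80 µL; one replicate is shown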
BJeLR viability: MLPCN primary cell-based screen for lethality selective to Ras in HRASV12 cells; BJeLR (HRASV12) viability, CellTiter-Glo ATP luminescence, 48 h; reference of the scale not given here; inhibition, % (no concentration beside the values); 300,000 tested, 0.17% active; AID 1554, 2009;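 active = replicate mean above 50%; inconclusive = above 50% but judged a plate artefact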;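 also: 50 nL library stock added to about 25 µL; numbers are from one replicate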
PrP UTR inh: inhibition of PrP 5' UTR reporter expression; cell-based PrP 5' UTR mRNA reporter, plate reader; inhibition, % (no concentration beside the values); 340,000 tested, 0.35% active; AID 488862, 2010;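 active = every replicate at 50% or more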;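 also: 0 = median of the neutral control wells; tested in H4 reporter cells; numbers are from one replicate; inactives centre near -14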
Mtb hypoxia rep: PubChem AID 1159583; M. tuberculosis hypoxia-regulated fluorescent reporter, fluorescence; fluorescence inhibition, % (concentration not given with the values); 300,000 tested, 0.1% active;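 active = 35 to 45% if threefold the growth effect, above 45% if 1.5-fold the growth effect; inactive = the rest, general growth blockers included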;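 also: wells of about 50 µL received 100 nL stock; 0% = vehicle wells and 100% = reference inhibitor wells; whole bacteria with a GFP reporter of the hypoxia response; strong numbers were not always called active; many hits fall short of the cut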
Autofluor counter: flagged as autofluorescent in microsphere protease counterscreen; compound autofluorescence counterscreen, microsphere flow cytometry; stronger effect = higher value; fluorescence intensity (concentration not given with the values); 360,000 tested, 3.1% active; AID 624483;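 active = at least 3 SD above the mean of all compounds, about 16000 in these data; inconclusive = too few beads counted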;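 also: 100 nL of 1 mM stock went into each well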
Mtb hypoxia rep growth: also measured in Mtb hypoxia rep; calls as there; growth inhibition, %; measured here: M. tuberculosis growth (absorbance);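 0% = vehicle and 100% = reference antibiotic; read after six days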
The depositor's hits bear a star; ? = inconclusive; nt = not tested or not shown.

SMILES	Sa ugtP lethal	Sa RN4220 lethal	BJeLR viability	PrP UTR inh	Mtb hypoxia rep	Mtb hypoxia rep growth	Autofluor counter
C/C(CC(=O)Nc1cccc(Cl)c1C)=N\NC(=O)C(=O)NCC(C)C	nt	nt	6	-10	nt	nt	2294
CSc1nnc(C)c(=O)n1COC(=O)COc1ccc2ccccc2c1	2	3.3	-12	-18	2	2	2175
CN(CC(=O)Nc1ccc(C#N)cc1)Cc1ccc(Cl)cc1Cl	-19	-3.4	-1	-15	1	5	22298*
COc1ccc(N(Cc2ccc(N(C)C)cc2)C(=O)c2ccc(S(C)(=O)=O)cc2)cc1	nt	nt	-9	-15	nt	nt	4105
C=Cc1cccc(NC(=O)COc2ccccc2)c1	1	6.6	-2	-29	9	3	nt
CC(c1ccco1)N(Cc1ccco1)C(=O)Nc1ccccc1 (stereo not drawn)	3	4.6	0	-12	-5	-3	9830
CCOc1cc(CNCc2ccccn2)ccc1OCC(=O)NC(C)(C)C	3	-2.6	-3	4	1	7	2593
Nc1nc(SCC(=O)Nc2ccc(OC(F)(F)F)cc2)[nH]c(=O)c1NC(=O)c1ccc(Br)o1	-2	0.4	-6	8	-1	-7	?
Cc1ccc2cccc(S(=O)(=O)N3CCN(c4ccccc4F)CC3)c2n1	-24	6.3	-3	-81	2	12	10327
COc1ccc(NC(=O)c2cc(C(=O)Nc3ccc(OC)cc3OC)cc([N+](=O)[O-])c2)c(OC)c1	4	0.0	-1	-11	-8	-15	3700
CC(OC(=O)c1ccc(O)cc1)C(=O)Nc1ccc(Oc2ccccc2)cc1 (stereo not drawn)	-25	-14	nt	0	-22	11	3703
O=c1c2ccccc2cnn1Cc1n[nH]c(=S)n1-c1ccccc1Cl	4	1.2	-1	-4	11	9	2030
O=C(Cn1nnc(-c2ccccc2)n1)NCc1ccco1	2	1.1	2	-5	2	6	2728
C=CCn1c(CNC(=O)c2ccco2)nnc1SCC(=O)Nc1cccc(Br)c1	-1	-4.4	-4	-36	13	-2	24230*
CC1CCc2c(sc3[nH]c(=S)n(C)c(=O)c23)C1 (stereo not drawn)	25	26	6	-23	14	9	3829

Laid out differently: results already given.
> C=Cc1cccc(NC(=O)COc2ccccc2)c1
  Sa ugtP lethal = 1	Sa RN4220 lethal = 6.6	BJeLR viability = -2	PrP UTR inh = -29	Mtb hypoxia rep = 9	Mtb hypoxia rep growth = 3	Autofluor counter = nt
> O=c1c2ccccc2cnn1Cc1n[nH]c(=S)n1-c1ccccc1Cl
  Sa ugtP lethal = 4	Sa RN4220 lethal = 1.2	BJeLR viability = -1	PrP UTR inh = -4	Mtb hypoxia rep = 11	Mtb hypoxia rep growth = 9	Autofluor counter = 2030
> COc1ccc(NC(=O)c2cc(C(=O)Nc3ccc(OC)cc3OC)cc([N+](=O)[O-])c2)c(OC)c1
  Sa ugtP lethal = 4	Sa RN4220 lethal = 0.0	BJeLR viability = -1	PrP UTR inh = -11	Mtb hypoxia rep = -8	Mtb hypoxia rep growth = -15	Autofluor counter = 3700
> C/C(CC(=O)Nc1cccc(Cl)c1C)=N\NC(=O)C(=O)NCC(C)C
  Sa ugtP lethal = nt	Sa RN4220 lethal = nt	BJeLR viability = 6	PrP UTR inh = -10	Mtb hypoxia rep = nt	Mtb hypoxia rep growth = nt	Autofluor counter = 2294

(more compounds)
SMILES	Sa ugtP lethal	Sa RN4220 lethal	BJeLR viability	PrP UTR inh	Mtb hypoxia rep	Mtb hypoxia rep growth	Autofluor counter
CC(=O)Nc1ccc(NC(=O)C(=O)NCC(c2ccco2)N2CCc3ccccc32)cc1 (stereo not drawn)	nt	nt	5	-13	nt	nt	4454
CN1CCN(CCOc2ccc(Cl)c(Cl)c2)CC1	2	2.8	-10	-29	5	3	2507
C=CS(=O)(=O)N(Cc1ccccc1Br)C(CO)Cc1ccccc1 (stereo not drawn)	9	17	nt	nt	0	-1	nt
COc1ccc(OC(C)C(=O)Nc2ccc([N+](=O)[O-])cc2)cc1 (stereo not drawn)	6	5.5	-8	-10	9	2	1996
Cc1nc2ccc(S(=O)(=O)NC(CC(C)C)C(=O)O)cc2s1 (stereo not drawn)	1	0.4	2	-11	nt	nt	2397
COc1nc(OCCNC(=O)Nc2ccccc2)nc(N(C)C)n1	-3	1.9	-5	-7	0	8	2506
COc1ccc(CN2Cc3cccc4c3C(CC2=O)C(O)C(O)C4)cc1 (stereo not drawn)	9	4.9	nt	nt	-1	7	nt
CC(=O)N1CCN(C(=O)CNC(=O)c2ccc(C)s2)CC1	10	2.9	nt	-24	2	-5	4384
Cc1ccc(S(=O)(=O)CC(O)CN2CCCC2=O)cc1 (stereo not drawn)	-2	-0.5	11	-24	3	-3	9881
CC1CCCN(CC(=O)Nc2ccc(S(=O)(=O)N3CCCC3)cc2)C1 (stereo not drawn)	1	0.7	8	-11	-1	2	4189
Cc1ccc(S(=O)(=O)N(C)c2c(C)ccc(S(=O)(=O)Nc3ccncc3)c2C)cc1	-2	-0.5	-5	-3	6	5	2105
Cc1ccccc1NC(=S)NC(=O)COc1ccccc1C	34	8.8	10	-27	4	6	6036
Fc1cccc(CSc2ncnc3c2oc2ccccc23)c1	10	-1.0	3	2	7	17	5523
O=C(CCl)N1CCCC1c1ccc2c(c1)OCCO2 (stereo not drawn)	nt	nt	14	3	nt	nt	6183
CC(=O)N1CCN(c2ccc(NC(=O)c3ccco3)cc2)CC1	1	3.0	-18	-33	10	9	3619
Cc1ccc(C=NNc2nc3ccc(Cl)cc3[nH]2)o1	-10	9.7	nt	nt	9	5	nt
CCOc1ccc(C(=O)N[C@H](C(=O)NNC(=O)c2cccs2)C(C)C)cc1	6	0.2	nt	-29	0	6	3665
CCOC(=O)C(CCCCCOc1ccc([N+](=O)[O-])cc1)C(=O)OCC	21	6.0	2	-18	10	4	15568
CCOC(=O)C=Nc1c(N)n(C)c(=O)n(C)c1=O	6	4.9	7	-24	4	-3	2154
O=C1CCCc2c1ccc1ccccc21	0	6.6	nt	-19	9	8	3292
O=C(NCc1ccccc1Cl)c1cccc(NC(=O)c2ccccc2)c1	-3	4.4	9	-11	10	8	2546
Nc1cc(Cl)ccc1C(=O)OCC(=O)N1CCOCC1	4	1.7	-15	-6	3	9	4448
CCCNC(=O)C1CN(S(=O)(=O)c2ccc(Cl)s2)c2ccccc2O1 (stereo not drawn)	-7	3.2	nt	0	12	4	6163
COc1ccc(F)cc1S(=O)(=O)Nc1ccc2c(c1)OCO2	9	2.4	-2	-36	11	-1	5600
COc1cccc(NC(=O)N2CCN(c3cccc(C)c3)C(C)C2)c1 (stereo not drawn)	-3	1.8	4	-17	11	12	2875
CCOC(=O)C(C)n1nc(/C=C/c2ccccc2)ccc1=O (stereo not drawn)	8	-1.1	-1	-13	nt	nt	4895
COc1ccc(N2CCN(Cc3nc4c(c(=O)[nH]c(=O)n4C)n3Cc3cccc(Cl)c3)CC2)cc1	13	-3.7	-5	-25	-2	2	5850
COc1ccc(S(=O)(=O)N2CCC(C(=O)NC3CCCC3)CC2)cc1OC	6	1.1	-5	-1	7	5	6118
O=c1cc(NCCCO)c2ccccc2o1	-2	4.8	-1	-34	9	10	10725
O=C(c1cc(-c2ccncc2)nc2ccccc12)N1CCN(S(=O)(=O)C=Cc2ccccc2)CC1	-13	2.2	nt	nt	2	9	nt
O=C(CSCc1ccc([N+](=O)[O-])cc1)Nc1cccc(C(=O)Nc2ccccc2C(=O)O)c1	3	0.7	-1	-12	-3	0	11374
Cc1cc(C)n(CCCNC(=O)c2cc(COc3ccc(C)c(C)c3)on2)n1	2	-2.4	-2	-14	13	14	5140
Cc1ccc(-c2csc(NCCn3c(C(F)(F)F)nc4ccccc43)n2)cc1	-12	-20	3	-34	14	7	3534
Cc1ccc(Cn2nnc3c(=O)[nH]c(C4CCCN(S(=O)(=O)c5ccccc5F)C4)nc32)cc1 (stereo not drawn)	9	3.9	-14	-39	3	-13	3120
CC(=O)Nc1ccc(S(=O)(=O)NC2(C(F)(F)F)C(=O)Nc3c2c(=O)[nH]c(=O)n3Cc2cccnc2)cc1 (stereo not drawn)	0	4.8	9	2	4	-5	4433
O=C(NC1CCCCCC1)c1ccc[nH]c1=S	-7	7.9	0	-18	2	14	4173
CC(=O)Nc1nc2ccccc2n1CCOc1ccccc1Cl	-12	2.9	-6	4	-2	1	4302
CC1=CCC2C(=O)N(c3ccc(C)c(Br)c3)C(=O)C2C1 (stereo not drawn)	6	7.5	-1	-13	nt	nt	4562
Cn1nc(-c2ccccc2)cc1NC(=O)Nc1ccc(F)cc1	-13	-0.4	-6	-11	-9	11	4646
COc1ccc(NC(=O)C2CCN(C(=O)C3CC(=O)N(c4ccc(C)cc4)C3)CC2)c(OC)c1 (stereo not drawn)	4	2.6	0	9	-3	2	3593
O=C(c1ccc(Br)s1)N1CCN(c2ncccn2)CC1	2	1.6	-7	-7	9	7	23389*
COc1ccccc1/C=N/NC(=O)c1ccc(NC(=O)c2ccccc2Br)cc1	nt	nt	-3	-35	nt	nt	2413
O=C(O)CSCC(=O)NC1CCCc2ccccc21 (stereo not drawn)	-3	2.0	0	-7	12	-1	4211
CCOCCCNC(=O)c1ccc2nc(-c3ccc(OC)c(OC)c3)c(-c3ccc(OC)c(OC)c3)nc2c1	0	1.8	-9	-6	12	3	3789
C=CCNC(=S)NNC(=O)c1ccc(OCC(C)C)cc1	-3	-3.1	2	-2	0	5	10488
Cc1cc(-c2nnc3n2N=C(C(C)(C)C)CS3)n[nH]1	0	0.3	nt	-25	nt	nt	3111
CN(C(=O)c1ccc(S(=O)(=O)N2CCOCC2)cc1)C1CCS(=O)(=O)C1 (stereo not drawn)	7	2.7	-3	-19	3	7	4434
Cc1ccnc2nc(C(=O)OCC(=O)N(CC(C)C)C3CCS(=O)(=O)C3)nn12 (stereo not drawn)	0	1.2	nt	-13	0	-3	3764
O=C(c1ccc(Cl)c(S(=O)(=O)N2CCCC2)c1)N1CCN(c2ncccn2)CC1	4	5.2	-3	-26	-10	-7	4823
COc1ccccc1NC(=O)CSc1nc(=O)n(Cc2ccncc2)c2c1CCCC2	5	5.5	0	-15	5	7	5410
O=C1C(=O)N(CCN2CCOCC2)C(c2cccnc2)/C1=C(/O)c1ccc(Cl)cc1 (stereo not drawn)	nt	nt	-1	-19	nt	nt	4783
O=C(CN1CCOCC1)Nc1ncc(Cc2cccc(Cl)c2)s1	11	2.9	8	-8	7	12	1970
N[C@@H](CO)c1nnc([C@H](CC(=O)O)NC(=O)C2CCNCC2)o1	nt	nt	9	2	nt	nt	4544
NC(=O)N/N=C1\c2ccccc2-c2c(C(N)=O)cccc21	nt	nt	0	-13	nt	nt	2746
O=C(NCCc1nccs1)C1CCC(=O)N(CCc2ccc(Cl)cc2)C1 (stereo not drawn)	1	0.0	-5	7	4	11	5424
CCOC(=O)c1c(S(=O)(=O)NCC(=O)NCc2ccc(C)cc2)c(C)n(C)c1C	2	4.2	1	-12	5	2	5980
O=C(CCN1C(=O)CSC1=O)Nc1ccccc1	2	3.1	5	-9	9	10	3973
COc1ccc(NC(=O)COC(=O)CN2C(=O)C3CCCCC3C2=O)cc1OC (stereo not drawn)	-2	-2.6	nt	-2	-7	-1	4528
Cn1c(=O)c2c(ncn2CC(O)CO)n(C)c1=O (stereo not drawn)	-2	3.7	-7	-3	4	-12	6303
CCOc1nnc(C)c2c(C)n(-c3cccc(OC)c3)nc12	-5	-5.7	1	-26	4	2	5085
New compounds follow:
SMILES	Sa ugtP lethal	Sa RN4220 lethal	BJeLR viability	PrP UTR inh	Mtb hypoxia rep	Mtb hypoxia rep growth	Autofluor counter
CC1Cc2ccccc2N1Cc1ccc([N+](=O)[O-])cc1 (stereo not drawn)	7	-9.4	1	-6	5	3	5792
CCCNC(=O)N1CCC(C(=O)c2ccc(Cl)cc2)CC1	4	4.9	-7	-19	18	11	3823
N#Cc1cccc(NC(=O)Cn2c3[n+](c4ccc(C(F)(F)F)cc42)CCCCC3)c1	-2	5.1	-12	-31	9	9	12793
O=C1NCCCC1C(=O)N/N=C/c1ccccc1 (stereo not drawn)	nt	nt	-11	-9	nt	nt	8403
C[C@H]1CNC(=O)C(=O)N1C[C@H](Cc1ccc(O)cc1)NC(=O)CC12CC3CC(CC(C3)C1)C2	nt	nt	1	3	nt	nt	2648
Cc1sc2nc(SCC(=O)N(C)C)[nH]c(=O)c2c1C	0	2.8	-5	-5	nt	nt	2829
Cc1cc(C)cc(C(=O)OCC(=O)NC(=O)NC2CCCC2)c1	4	3.6	nt	-9	-3	0	3901
COc1cc(C=NNc2cccc(C)c2)cc(Br)c1O	96*	54	nt	nt	-2	9	nt
